# Assay outcomes: PubChem BioAssay, National Center for Advancing Translational Sciences (NCATS)
# nsP2pro primary = inhibitors of chikungunya virus nsP2 protease. Q8JUX6. FRET peptide cleavage, nsP2pro, fluorescence 1 h. Potency, µM (series often up to 24.9 µM), for inactives: at the top dose activity change, negative = inhibition, most hits filed as inhibitors. hit rate 1.1% among 31,000; active means well fitted inhibition curve with a large enough effect; inconclusive means small, poorly fitted or top-dose-only effect; inactive means no such curve, though single readings can be large or run the other way; also: nearly all actives have a fitted effect of over 60% in size; a reference inhibitor and vehicle were the controls
# Target sequence (Q8JUX6 whole entry, looked up): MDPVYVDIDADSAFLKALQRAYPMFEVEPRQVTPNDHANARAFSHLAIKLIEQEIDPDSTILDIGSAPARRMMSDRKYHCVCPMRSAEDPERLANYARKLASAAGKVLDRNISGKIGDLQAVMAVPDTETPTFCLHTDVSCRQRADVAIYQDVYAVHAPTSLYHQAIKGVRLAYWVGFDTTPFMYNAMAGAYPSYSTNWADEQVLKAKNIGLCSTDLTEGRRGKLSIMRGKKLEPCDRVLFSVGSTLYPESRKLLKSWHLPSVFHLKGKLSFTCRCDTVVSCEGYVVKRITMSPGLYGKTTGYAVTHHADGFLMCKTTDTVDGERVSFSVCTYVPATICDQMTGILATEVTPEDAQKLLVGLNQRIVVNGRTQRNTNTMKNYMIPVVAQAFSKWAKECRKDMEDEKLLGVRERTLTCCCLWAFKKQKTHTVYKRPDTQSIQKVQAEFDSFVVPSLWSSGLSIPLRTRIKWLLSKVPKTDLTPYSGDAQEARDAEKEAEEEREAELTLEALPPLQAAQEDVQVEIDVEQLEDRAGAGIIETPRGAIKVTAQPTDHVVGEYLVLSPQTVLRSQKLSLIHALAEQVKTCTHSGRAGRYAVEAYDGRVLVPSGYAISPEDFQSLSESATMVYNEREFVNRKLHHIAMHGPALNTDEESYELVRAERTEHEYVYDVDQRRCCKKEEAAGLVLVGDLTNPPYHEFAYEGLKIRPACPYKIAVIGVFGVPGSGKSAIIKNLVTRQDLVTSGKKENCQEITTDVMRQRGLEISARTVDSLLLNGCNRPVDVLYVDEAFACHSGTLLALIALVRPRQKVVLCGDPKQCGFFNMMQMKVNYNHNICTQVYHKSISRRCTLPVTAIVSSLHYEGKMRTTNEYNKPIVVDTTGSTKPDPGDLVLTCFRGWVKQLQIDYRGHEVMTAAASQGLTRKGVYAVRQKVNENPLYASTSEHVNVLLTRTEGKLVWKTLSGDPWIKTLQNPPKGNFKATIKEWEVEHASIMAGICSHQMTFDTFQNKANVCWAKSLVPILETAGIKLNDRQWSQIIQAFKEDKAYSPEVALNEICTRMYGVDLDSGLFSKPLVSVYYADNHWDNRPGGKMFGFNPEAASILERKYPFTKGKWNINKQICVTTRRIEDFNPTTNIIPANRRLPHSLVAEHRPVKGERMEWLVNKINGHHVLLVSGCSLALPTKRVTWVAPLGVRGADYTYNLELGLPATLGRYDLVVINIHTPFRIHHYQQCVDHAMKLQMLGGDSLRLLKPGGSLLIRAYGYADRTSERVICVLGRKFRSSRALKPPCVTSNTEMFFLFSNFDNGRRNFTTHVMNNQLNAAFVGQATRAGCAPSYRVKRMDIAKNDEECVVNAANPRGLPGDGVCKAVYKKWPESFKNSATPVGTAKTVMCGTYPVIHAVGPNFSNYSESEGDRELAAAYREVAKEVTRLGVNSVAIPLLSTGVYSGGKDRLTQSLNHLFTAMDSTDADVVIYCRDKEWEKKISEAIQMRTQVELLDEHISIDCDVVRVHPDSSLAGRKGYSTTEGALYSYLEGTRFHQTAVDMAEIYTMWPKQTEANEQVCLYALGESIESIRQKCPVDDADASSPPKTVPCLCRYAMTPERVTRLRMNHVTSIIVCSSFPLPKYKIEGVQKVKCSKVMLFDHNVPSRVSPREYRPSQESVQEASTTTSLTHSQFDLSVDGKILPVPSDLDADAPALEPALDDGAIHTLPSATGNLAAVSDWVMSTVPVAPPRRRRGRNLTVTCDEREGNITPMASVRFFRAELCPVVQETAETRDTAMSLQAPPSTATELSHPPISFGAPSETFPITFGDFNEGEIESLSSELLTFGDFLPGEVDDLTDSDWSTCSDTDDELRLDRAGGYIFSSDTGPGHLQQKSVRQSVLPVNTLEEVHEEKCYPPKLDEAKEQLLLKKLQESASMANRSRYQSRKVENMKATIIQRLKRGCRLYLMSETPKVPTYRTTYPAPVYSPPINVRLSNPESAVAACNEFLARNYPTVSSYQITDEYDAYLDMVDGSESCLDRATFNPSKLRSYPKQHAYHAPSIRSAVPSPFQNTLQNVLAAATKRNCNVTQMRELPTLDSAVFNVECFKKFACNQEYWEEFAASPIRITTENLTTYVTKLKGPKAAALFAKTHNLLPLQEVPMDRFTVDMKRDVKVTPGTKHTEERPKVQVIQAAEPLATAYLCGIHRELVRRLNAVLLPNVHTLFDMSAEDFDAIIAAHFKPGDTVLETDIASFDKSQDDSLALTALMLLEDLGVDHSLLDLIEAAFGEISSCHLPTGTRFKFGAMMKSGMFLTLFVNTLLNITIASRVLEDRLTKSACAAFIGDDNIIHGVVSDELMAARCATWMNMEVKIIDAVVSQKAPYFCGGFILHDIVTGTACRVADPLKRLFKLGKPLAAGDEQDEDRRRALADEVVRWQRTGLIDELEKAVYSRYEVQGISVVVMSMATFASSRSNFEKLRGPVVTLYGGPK
# * marks the source's active call; other numbers are inactive results; i = inactive; ? = inconclusive; & = joins results of further samples; [ ] = another dose, or the depositor's remark. % is scaled to controls: 0 for no effect and ±100 for the full control effect; potency is read from the fitted curve at half-maximal effect. These rows are one share of the data; the hit share may differ from the screen's.
SMILES,nsP2pro primary
Cc1noc(C)c1C(=O)N1CCC2(CCCN(C(c3ccccc3)c3ccccc3)C2)CC1,i
Nc1ncn([C@@H]2O[C@H](CO)[C@@H](O)[C@H]2O)c(=O)n1,-15%&-12%
O=S(=O)(NCc1ccccc1F)c1ccc(O)c2ncccc12,i
c1coc(CNc2nc(-c3cccs3)nc3ccccc23)c1,-7%
O=C(CN1CCN(c2ccc(Cl)cc2)CC1)Nc1ccc(F)cc1F,-23%
COC1CCC12CCN(C(=O)c1ccc(C)s1)CC2 (stereo not drawn),-5%
COc1cc(C2c3cc(O)c(OC)cc3CC(CO)C2CO)ccc1O (stereo not drawn),37%[activator]
CCCCOc1ccc(C2c3c(-c4ccccc4O)n[nH]c3C(=O)N2Cc2ccncc2)cc1OC (stereo not drawn),51%[activator]
CC(C)(C)c1ccc(NC(=O)c2cccs2)cn1,-23%
Cc1ccccc1CN1C2=NCCN2C(=O)C2=C1CCN(Cc1ccccc1)C2,-2%
CCCCn1c(=O)c2oc3ccccc3c2n(CC(=O)Nc2cccc(Cl)c2)c1=O,-14%
CN(C)S(=O)(=O)N1C[C@@H](Oc2cccnc2)C[C@H]1C(=O)N1CCOCC1,-2%
Cc1cc2oc(C(=O)Nc3sc4c(c3C(=O)NCC3CCCO3)CCCC4)cc(=O)c2cc1C (stereo not drawn),-8%
Cc1nc(C#Cc2ccnc(Cl)c2)c(C)n1-c1ccc(OC(F)(F)F)cc1,-1%
O=C1c2cnc(-c3cc4ccccc4o3)nc2OCCN1CC1CC1,i
CC1(C)CCC2(C(=O)O)C(O)CC3(C)C(=CCC4C5(C)CCC(OC6OC(CO)C(O)C(O)C6OC6OC(CO)C(O)C(O)C6OC6OCC(O)(CO)C6O)C(C)(C)C5CCC43C)C2C1 (stereo not drawn),?
CC1=CC(=O)C2C(C)(C)CCCC2(C)C12CCC1(COC(=O)C1)O2 (stereo not drawn),12%
COc1c(C)c(OCC=C(C)C)cc2c1COC2=O,?
CN1C[C@H](O)C[C@H]1c1nnc2n1CCN(C(=O)c1cccnc1)CC2,i
CCOc1ccc(C(C)CNC(=O)c2cc3sccc3n2Cc2ccccc2)cc1OCC (stereo not drawn),0%
NC(=O)[C@@H](Cc1c[nH]c2ccccc12)NC(=O)[C@@H]1CN(S(=O)(=O)c2ccccc2)CCN1C(=O)C1CCNCC1,0%
Cc1cccc(NC(=O)CSc2cn(CC(=O)N3CCCCCC3)c3ccccc23)c1,-15%
CNC(=O)[C@H]1C[C@]2(CCCCNC2=O)N(C(=O)c2cccc(C#N)c2)[C@H]1c1ccco1,-4%
Cc1cc(C(=O)N2CCC(OCCOc3ccc(F)cc3)CC2)nn1C,-6%
O=C(c1ccc(-n2ccnc2)cc1)N1CCN(c2cccc(Cl)c2)C(=O)C1,5%
COc1ccc(S(=O)(=O)Nc2ccc(C)c(C)c2)cc1,5%
CC(=O)N1CCN(c2ccc(NCc3ccc(-c4cccc(Cl)c4)o3)cc2)CC1,i
N#Cc1cccc(C(=O)N2C[C@@H](Oc3cccnc3)C[C@H]2C(=O)NC2CC2)c1,-8%
C[S+](=O)([O-])N1CC2(CCN(Cc3c[nH]c4ccccc34)CC2)Cc2ccccc21,1%
O=[S+]([O-])(Nc1ccccc1)c1ccc(NCc2cccc(Cl)c2F)cc1,i
C/C=C(\C)C(=O)O[C@H]1CC2C(=C1C)[C@H]1OC(=O)[C@](C)(O)[C@]1(O)[C@H](OC(=O)CCC)C[C@@]2(C)OC(C)=O (stereo partly drawn),-2%[10 µM]
COc1cc(/C=C/C(=O)O[C@H]2[C@H](O)[C@@H](CO)O[C@@]2(CO)O[C@H]2O[C@H](CO)[C@@H](O)[C@H](O)[C@H]2O)ccc1O,-9%[10 µM]
[O-][n+]1onc(-c2ccccc2)c1CO,i
Cc1ccc(NC(=O)CN2C(=O)N/C(=C\c3cccn3-c3cccc(-c4nn[nH]n4)c3)C2=O)cc1,i
Clc1cccc(-n2ncc3c(NCCC4=CCCCC4)ncnc32)c1,-23%
Cc1ccccc1N1CC(c2nnc(NC(=O)c3ccco3)s2)CC1=O (stereo not drawn),-27%
C=CCC1=C[C@]2(OC)[C@H](C)[C@@H](c3ccc4c(c3)OCO4)O[C@]2(OC)CC1=O,-10%
CN1C(=O)OC(C)(C)C1=O,5%
CC(C)=C1C/C=C(\C)CC/C=C(\C)CC1=O,0%
O=C(Nc1ccc(Cl)cc1C(F)(F)F)c1cc(S(=O)(=O)N2CCOCC2)ccc1F,-18%
CC1CCC2C(C)(C)[C@@H](O)CC[C@]2(C)C12Cc1c(O)cc3c(c1O2)CN(C(CCC(=O)O)C(=O)O)C3=O (stereo partly drawn),?
COc1ccc(F)cc1-c1cc(NC(=O)[C@@H]2CCCNC2)ncc1Cl,42%[activator]
COc1ccccc1CNC(=O)COCc1cc(-c2cccs2)on1,-13%
CCOc1ccc2nc(NC(=O)c3nc(SCc4ccc(C)cc4)ncc3Cl)sc2c1,-18%
COc1c(C)c2c(c(O)c1C/C=C(\C)CCC(=O)O)C(=O)OC2,-6%
O=C(O)c1ccc(O)c2ncc(N3CC(N4CCOCC4)C3)cc12,1%
CN(C)CCOC1=Cc2ccccc2Sc2ccc(Cl)cc21,25%
CCOC(=O)c1oc2ccc(S(=O)(=O)n3nc(-c4ccc(C)cc4)cc3N)cc2c1C,-11%
CC(C)CNc1nc(Oc2ccc(OCC(N)=O)nn2)nc(N2CCOCC2)n1,-11%
CC(C)(C)OC(=O)N1CCC(c2c(C(=O)N3CCC(c4ccccc4)C3)cnn2-c2cccc(Cl)c2)CC1 (stereo not drawn),-17%
Cc1ccc(S(=O)(=O)/C=C/C#N)cc1,0.88µM*
Cc1cccc(NC(=O)C2CCCN(S(=O)(=O)c3cnc[nH]3)C2)c1C (stereo not drawn),-22%
CCn1ccn2c(-c3ccccc3)nc(C)c2c1=O,i
C[C@@H]1O[C@@H](OC[C@H]2O[C@@H](Oc3c(-c4ccc(O)c(O)c4)oc4cc(O)cc(O)c4c3=O)[C@H](O)[C@@H](O)[C@@H]2O)[C@H](O)[C@H](O)[C@H]1O,8%&19%
Cc1ccc(-c2ccnc(N3CCC(C(N)=O)CC3)n2)cc1,-3%
CCCCOc1ccc(C(=O)Nc2ccc(-c3cc4ccccc4oc3=O)cc2)cc1,-28%
CC(C)(C)c1cc(C(C)(C)C)c2c(c1)C(O)(C(F)(F)F)C(=O)O2 (stereo not drawn),-11%
O=C(COc1ccccc1)N1CCOC[C@H](Oc2ccccc2)C1,i
CCc1ccc(-n2nc(CO)c(C(=O)NCc3ccccc3OC)n2)cc1,-27%
O=c1[nH]c(C2CCN(Cc3ccc(-c4cccnc4)cc3)CC2)nc2ccc(F)cc12,-23%

# Carrying on:
SMILES,nsP2pro primary
CC1(C)CC[C@@]2(C(=O)O[C@@H]3O[C@H](CO)[C@@H](O)[C@H](O)[C@H]3O)C(C1)C1=CCC3[C@@]4(C)CC[C@@H](O[C@@H]5O[C@H](C(=O)O)[C@@H](O[C@@H]6OC[C@@H](O)[C@H](O)[C@H]6O)[C@H](O[C@@H]6OC[C@](O)(CO)[C@H]6O)[C@H]5O)C(C)(C)C4CC[C@@]3(C)[C@]1(C)C[C@H]2O (stereo partly drawn),10%[5.1 µM]
CCOc1cc(C(CS(C)(=O)=O)N2C(=O)c3cccc(NC(C)=O)c3C2=O)ccc1OC (stereo not drawn),-16%
COc1ccc(C2c3c(nc(Cc4ccccc4)[nH]c3=O)Oc3ccc4ccccc4c32)cc1OC (stereo not drawn),-3%
COc1ccc(C(=O)Nc2ccc([C@H]3OCC(=O)N[C@@H]3CO)cc2)cc1,i
Cc1noc(C)c1-c1cccc(-c2nn3c(=O)cc(N4CCNCC4)nc3s2)c1,0%
O=C(O)CCC1CCCN(S(=O)(=O)c2ccc(F)cc2)C1 (stereo not drawn),-1%
Cc1c(C)c2c(c(C)c1O)CC[C@@](C)(CCC[C@H](C)CCC[C@H](C)CCCC(C)C)O2,?
COc1ccc(-c2nc3c4ccccc4n(CC(=O)Nc4ccc(C(C)C)cc4)c(=O)n3n2)cc1,-16%
OC(CCN1CCCCC1)(c1ccccc1)c1ccccc1,-4%
NS(=O)(=O)c1cc(C(=O)O)c(NCc2ccco2)cc1Cl,0%
O=S(=O)(c1ccccc1)N1CCN(c2ccnc3ccnn23)CC1,i
c1cnc(-c2noc(-c3nc(-c4ccc5c(c4)OCO5)no3)n2)cn1,i
N#CC(C#N)=NNc1cccc(Cl)c1,-15%
COCC1CN(Cc2cccc(OC(F)(F)F)c2)CC12CCNCC2 (stereo not drawn),-2%
Cc1ccc(OCCn2c(CCNC(=O)c3cccc(C(F)(F)F)c3)nc3ccccc32)cc1,-1%&-9%
c1ccc(-c2cc3c(cn2)NCCN(CC2CC2)C3)cc1,-25%[39.2 µM]
C=CC[N+]1([C@H]2C[C@H]3[C@@H]4CC[C@H]5C[C@H](OC(C)=O)[C@@H](N6CCCCC6)C[C@]5(C)[C@H]4CC[C@]3(C)[C@H]2OC(=O)CC)CCCCC1,17%
CC(C)N(Cc1ccccc1)C(=O)CCS(=O)(=O)c1ccc2c(c1)oc(=O)n2C,?
CCOc1ccccc1NC(=O)CN1C(=O)COc2ccc(S(=O)(=O)Nc3ccccc3)cc21,-7%
CN1CCN(Cc2nc(C3(O)CCN(Cc4ccccc4C(F)(F)F)CC3)cs2)CC1,i

# Reformatted: 6 of the compounds above.
Compound	nsP2pro primary
Cc1c(C)c2c(c(C)c1O)CC[C@@](C)(CCC[C@H](C)CCC[C@H](C)CCCC(C)C)O2	?
COc1ccc(-c2nc3c4ccccc4n(CC(=O)Nc4ccc(C(C)C)cc4)c(=O)n3n2)cc1	-16%
OC(CCN1CCCCC1)(c1ccccc1)c1ccccc1	-4%
NS(=O)(=O)c1cc(C(=O)O)c(NCc2ccco2)cc1Cl	0%
O=S(=O)(c1ccccc1)N1CCN(c2ccnc3ccnn23)CC1	i
c1cnc(-c2noc(-c3nc(-c4ccc5c(c4)OCO5)no3)n2)cn1	i

# Following part.
SMILES,nsP2pro primary
Cc1ccc(Cl)cc1N1CCN(C(=O)c2cn(CC(C)C)c(=O)c3c2c2ccccc2n3C)CC1,-11%
COc1ccc(N2CC(NC(=O)c3ccc(S(=O)(=O)N4CCCC4)cc3)CC2=O)cc1 (stereo not drawn),-14%
CN1CCN([C@H]2CCN(C(=O)COCc3ccccc3)C[C@H]2CCCO)CC1,-18%
Cc1ccc(NC(=O)C2CCC(CNS(=O)(=O)c3cccs3)CC2)cc1C (stereo not drawn),-17%
O=C([C@@H]1C[C@@H](c2ccc(F)cc2)N([S+](=O)([O-])c2cccnc2)C1)N1CCOCC1,-3%[39.2 µM]
Cc1ccc(S(=O)(=O)Nc2ccc(C)cc2C(=O)Nc2nc(-c3ccccc3)cs2)cc1,i
COc1ccc([C@@]2(O)c3c(ccc(CC=C(C)C)c3O)NC(=O)[C@@H]2OC)cc1,-3%
O=S(=O)(Nc1ccccc1)c1ccc(NCc2ccc(Br)cc2O)cc1,-26%
O=C(NCCc1nccs1)c1cn(CCN2CCNCC2)nn1,-18%
COc1cc(C2CC(=O)Nc3c2c(C)nn3-c2nc(C)cc(C)n2)cc(OC)c1O (stereo not drawn),-11%
CN1CCN(c2nnc(NC(=O)Nc3ccc(Cl)c(Cl)c3)s2)CC1,1%
CCc1ccccc1Nc1nn2c(=O)c3ccc(C(=O)NC4CCC(C)CC4)cc3nc2s1 (stereo not drawn),-8%
O=C(/C=C\c1ccc2c(c1)OCO2)NC1CC(=O)N(c2cccc(F)c2)C1 (stereo not drawn),-20%
Cc1ccccc1C[C@H](C(=O)O)N1C(=O)c2ccc(C(=O)O)cc2C1=O,i
O=C1NC(=O)c2cc(Nc3ccc(F)cc3)c(Nc3ccc(F)cc3)cc21,38%[activator]
CNCc1cn(C[C@H]2O[C@@H](CC(=O)NCc3ccc(F)cc3)[C@H](O)[C@@H]2O)nn1,?
COc1cc(OC)c(OC)cc1/C=C/c1nc2cc3ccccc3cc2c(=O)n1-c1ccc(F)c(Cl)c1,-15%
O=C(CN1C(=O)N/C(=C\c2cccn2-c2cccc(C(=O)O)c2)C1=O)Nc1ccc(Cl)cc1,i
Cc1ccc2nc(Cl)c3cc(C(=O)N(C)C4CCCCC4)sc3c2c1,-29%
Cc1ccc(N2CCn3c2nc2c3c(=O)n(CCCc3ccccc3)c(=O)n2C)cc1C,-15%

# In the list so far, 4 contain a cyano group.
SMILES,nsP2pro primary
CNC(=O)[C@H]1C[C@]2(CCCCNC2=O)N(C(=O)c2cccc(C#N)c2)[C@H]1c1ccco1,-4%
N#Cc1cccc(C(=O)N2C[C@@H](Oc3cccnc3)C[C@H]2C(=O)NC2CC2)c1,-8%
Cc1ccc(S(=O)(=O)/C=C/C#N)cc1,0.88µM*
N#CC(C#N)=NNc1cccc(Cl)c1,-15%

# (cont.)
SMILES,nsP2pro primary
COc1cccc(-c2nnc(-c3cc4cc(Cl)ccc4oc3=O)o2)c1,-20%
Cc1ccccc1-n1c([C@H](C)Nc2nc(N)nc3nc[nH]c23)nc2cccc(C)c2c1=O,40%
O=C1CCCCC(C(=O)NC2CCCC2)N1 (stereo not drawn),-6%
O=C(NCc1nnc(C(=O)Nc2ccc(C(F)(F)F)cc2Cl)o1)c1ccccc1,4%
O=c1oc2ccccc2n1CCCOc1ccccc1Cl,-8%
CCOC(=O)C1CCN(C(=O)Cn2ncc3c4ccccc4n(C)c3c2=O)CC1,-15%
Cc1ccc(-c2cccc(CN3CCCC(c4nc5ccc(C)cc5c(=O)[nH]4)C3)c2)c(C)c1 (stereo not drawn),i
C/C=C1/[C@H](O[C@@H]2O[C@H](CO)[C@@H](O)[C@H](O)[C@H]2O)OC=C2C(=O)O[C@@H]3C[C@@H](C(C)CO)[C@H](COC(=O)C[C@H]21)[C@H]3C (stereo partly drawn),?

# Two records drawn at random from the list so far:
SMILES,nsP2pro primary
C/C=C1/[C@H](O[C@@H]2O[C@H](CO)[C@@H](O)[C@H](O)[C@H]2O)OC=C2C(=O)O[C@@H]3C[C@@H](C(C)CO)[C@H](COC(=O)C[C@H]21)[C@H]3C (stereo partly drawn),?
O=C(NCc1nnc(C(=O)Nc2ccc(C(F)(F)F)cc2Cl)o1)c1ccccc1,4%
